TRPV1 potentiator = enhances activation of the human vanilloid receptor TRPV1 | Q8NER1 | TRPV1-expressing cells, Fluo-8 calcium influx, capsaicin EC20 potentiation; host cell line not named in the record; control for the full effect not named in the record | potentiation, % at 8.33 µM | actives 0.02% (n = 320,000); active means potentiation above 80%; inconclusive means 30% to 80%; inactive means below 30%; note: 0% is about no effect
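TRPV1-expressing cells were cultured overnight at 35.5C and loaded with Fluo-8 calcium dye for 40 to 90 min at room temperature. After a 10 s baseline, compound was added and calcium influx was read kinetically for 3 min (ex 480/em 520 nm).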
Sfp inh = inhibitors of Bacillus subtilis Sfp phosphopantetheinyl transferase. Biochemical Sfp PPTase activity, qHTS. Potency, µM, for inactives: max response, negative = inhibition, usual class: inhibitors. actives 3.5% (n = 310,000). AID 1490; active = well fitted inhibition curve with a large enough effect; inconclusive = small, poorly fitted or top-dose-only effect, or another doubt; inactive = no such curve, though single readings can be large or run the other way;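 note: the enzyme is Sfp with the accession as filed and its product quenches rhodamine fluorescence; potency is the fitted concentration of half-maximal effect; 0% = enzyme reaction without inhibitor and -100% = no enzyme wells; top concentration of the series not given in the record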
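Fluorescence-quenching assay: 15 nM Sfp-PPTase preincubated 15 min at room temperature with compound, then 5 uM rhodamine-CoA and 12.5 uM BHQ-2-labelled YbbR peptide added. Fluorescence (ex 525/em 598 nm) read at start and after 30 min; difference gives rate.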
PINK1 modulator = changes PINK1 expression; PINK1 immunofluorescence, high-content cytometry, 24 h; Potency, µM (series often up to 76.6 µM), for the others: at the top dose activation (PINK1 increase), usual class: activators; actives 0.2% (n = 410,000); AID 624263; active = well fitted activation curve with a large enough effect; inconclusive = small, poorly fitted or top-dose-only effect; inactive = flat fitted curve, though single readings scatter; cell line not stated here;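 note: potency is the fitted concentration of half-maximal effect; % of control where 0% means no effect; nearly all actives have a fitted effect of over 65% in size; a mitochondrial uncoupler was the plate control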
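Measures PINK1 amount and localization on or inside mitochondria by immunofluorescence. Stable cells get compounds at 5 concentrations for 24 hours before fixation and staining; CCCP controls included.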
D2 PAM = potentiates the human D2 dopamine receptor allosterically; DiscoveRx D2 beta-arrestin cells, luminescence, 90 min; 100% = 57 uM dopamine signal; potentiation, % (concentration not given with the values); actives 0.23% (n = 360,000); active = potentiation of 50% or more; inconclusive = 30% to 50%; inactive = 30% or less;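 note: compound concentration not given in the record; tested on top of an EC20 dose of dopamine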
Target sequence (P14416 whole entry, looked up): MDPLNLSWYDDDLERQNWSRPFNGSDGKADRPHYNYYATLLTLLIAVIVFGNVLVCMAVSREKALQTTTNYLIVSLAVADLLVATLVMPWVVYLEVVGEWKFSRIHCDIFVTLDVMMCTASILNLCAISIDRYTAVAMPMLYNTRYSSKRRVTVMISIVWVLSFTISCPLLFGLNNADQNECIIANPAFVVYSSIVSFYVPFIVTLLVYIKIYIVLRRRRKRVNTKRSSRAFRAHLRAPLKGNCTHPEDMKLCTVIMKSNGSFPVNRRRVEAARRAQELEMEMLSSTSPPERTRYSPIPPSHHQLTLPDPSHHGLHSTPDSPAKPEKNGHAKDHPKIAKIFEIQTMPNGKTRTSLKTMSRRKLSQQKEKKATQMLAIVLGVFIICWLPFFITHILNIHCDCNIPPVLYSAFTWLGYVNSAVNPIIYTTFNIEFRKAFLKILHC
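D2 cells co-treated with compound plus 50 nM dopamine (EC20) for 90 min at 37 deg C to detect potentiation. Beta-arrestin recruitment was read as enzyme-fragment luminescence after 1 h at ambient temperature. Full response was set by 57 uM dopamine.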
D2 agonist = agonists of human D2 dopamine receptor (beta-arrestin) | DiscoveRx PathHunter D2 beta-arrestin, luminescence, 90 min; 100% = 57 uM dopamine signal | activation, % (no concentration beside the values) | actives 0.084% (n = 360,000); in the data active = activation above about 40%; inconclusive = about 15% to 40%; inactive = below about 15%; note: compound concentration not given in the record; the text of the record calls up to 30% inactive
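DiscoveRx PathHunter D2 beta-arrestin cells (2,100/well) attached overnight, then compound-stimulated 90 min at 37 C in HBSS/10 mM HEPES/0.1% Tween-20 buffer; beta-galactosidase complementation read by luminescence after 1 h at ambient temperature. Dopamine 57 uM final (EC100) as control.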
CtBP-E1A inh = inhibitors of CtBP/E1A interaction; AlphaScreen GST-E1A/His-CtBP binding, 1536-well; active compounds read low; control for the full effect not named in the record; activity change, % (test concentration not listed); actives 0.49% (n = 340,000); in the data active means activity change below about -65%; inconclusive means about -30% to -65%; inactive means above about -30%; note: % is set by controls: 0 for no effect and ±100 for the full control effect
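Steps: dispense buffer (Tris pH 8.0, NaCl 300 mM, TCEP 1 mM, BSA, Tween 20); add 5X protein mix (GST-E1A, His-CtBP, 125 nM each); pin 23 nL compound; 2 h at 37 °C, dark; add 5X beads (50 ug/mL); 1 h; read.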
Six1-Eya2 inh = Six1/Eya2 interaction inhibition | Q15475+O00167 | AlphaScreen GST-Six1/His-Eya2 binding, biochemical; active compounds read low; control for the full effect not named in the record | activity change, % (concentration not given with the values) | actives 0.56% (n = 360,000); in the data active = activity change below about -65%; inconclusive = about -30% to -65%; inactive = above about -30%; note: % is set by controls: 0 for no effect and ±100 for the full control effect
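Homogeneous AlphaScreen proximity assay pairing GST-Six1 with His-tagged Eya2 (added as 5X mix: 250 nM and 500 nM) in 50 mM Tris pH 8.0, 300 mM NaCl, 1 mM TCEP. Glutathione donor and nickel acceptor beads; 1 h, 37 °C, dark.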
Numbers without * were called inactive; ? = inconclusive; nt = no result given; [ ] = another dose, or the depositor's remark.

SMILES,TRPV1 potentiator,Sfp inh,PINK1 modulator,D2 PAM,D2 agonist,CtBP-E1A inh,Six1-Eya2 inh
O=C(N1CCOCC1)N1CCN(c2ccccn2)CC1,4,7%,-2.6%,-7,-1.0,7,2
CN(C)CCCN(Cc1ccccc1)C(=S)Nc1ccc(SC(F)F)cc1,-7,4%,-0.7%,-5,-10,-4,-6
CCc1c(C)n([O-])c2c([n+]1=O)CCC2,26,16%,-0.8%,-2,-0.6,21,23
O=C(Nc1ccccc1N1CCCCC1)c1ccc(Cl)c([N+](=O)[O-])c1,-1,-5%,-2.3%,21,?,-3,-26
COc1cccc(C(C(=O)NC2CCCC2)N(Cc2ccc(C)cc2)C(=O)c2ccco2)c1OC (centres undefined),-17,5%,0.9%,-15,-3.2,-4,-3
COc1ccc(Cl)cc1N1C(=O)C2CCCN2C1c1sccc1C (centres undefined),5,2%,-2.9%,-21,-2.9,1,1
COc1ccc([C@H]2CC(=O)C=C(c3c(OC)cccc3OC)C2)cc1,-11,nt,1.3%,-8,-5.2,-2,-2
O=C(CCNS(=O)(=O)c1ccccc1C(F)(F)F)N1CCN(c2ccccc2O)CC1,-1,nt,3.3%,-5,8.8,7,4
CC(=NN1CC(=O)NC1=O)c1ccc([N+](=O)[O-])o1,nt,nt,-3.6%,4,1.3,-1,7
CCn1c(SCC(=O)Nc2ccc3c(c2)OCO3)nc2c(c1=O)SC(C)C2 (centres undefined),?,18%,-1.5%,-3,-3.8,-5,-4
COc1ccc(C(=O)Nc2cccc(C(C)=O)c2)cc1S(=O)(=O)N1CCOCC1,5,2%,-0.7%,-3,-3.2,-7,-3
O=C(CSc1ccc(S(=O)(=O)N2CCCCC2)cn1)Nc1ccccc1Br,-4,nt,1.2%,1,41*,10,9
Cc1cc(=O)oc(C)c1C(=O)Nc1c(C)n(C)n(-c2ccccc2)c1=O,-6,21%,-2.1%,-5,-2.1,-2,1
O=c1nc2ccccc2c(NS(=O)(=O)c2ccc(Cl)cc2)n1-c1ccccc1,?,17%,-1.4%,4,0.3,-7,0
Cc1c(C(=O)O/N=C(\N)c2ccccn2)cccc1[N+](=O)[O-],-6,7%,7.1%,19,?,-15,-25
Cc1ccc(-n2c(C)cc(C)c(C#N)c2=O)cc1C,4,21%,0.3%,-7,-4.5,2,6
CC(=O)Nc1ccc(S(=O)(=O)NCC(=O)OCc2ccccc2)cc1,22,-9%,?,-16,2.9,0,27
CSc1nc(C(=O)N2CCCC(Nc3ccc(C)c(C)c3)C2)cs1 (centres undefined),-6,-10%,1.1%,-25,-3.0,-10,-22
c1cc(-c2noc(CCC3CCCC3)n2)ccn1,3,23%,3.7%,26,-0.9,12,11
CC(=O)c1ccc(S(=O)(=O)N(C)CCCC(=O)N(C)Cc2c(F)cccc2Cl)cc1,-11,10%,-0.3%,-3,-1.6,3,-11
CCN(CC)C(=O)C(Cc1ccccc1)N1C(=O)c2ccccc2C1=O (centres undefined),-20,14%,-0.2%,-1,-0.9,5,7
COc1ccc(S(=O)(=O)NNS(=O)(=O)c2ccc(OC)c(OC)c2)cc1OC,nt,nt,4.3%,-8,-4.1,-7,-2
CC(C)Cn1c(N)c(C(=O)COC(=O)C2=COCCO2)c(=O)n(C)c1=O,0,3%,1.8%,-4,-0.3,4,7
CC(=O)NC(CC(=O)NCc1ccncc1)c1ccccc1 (centres undefined),-3,11%,-0.3%,2,-0.4,6,3
O=c1ccc(C(F)(F)F)cn1Cc1cc(=O)n2ccsc2n1,12,7%,1.1%,-2,-0.7,-20,-13

Structures listed so far marked active in D2 agonist.
SMILES	Sfp inh	PINK1 modulator	D2 PAM	D2 agonist	CtBP-E1A inh	Six1-Eya2 inh
O=C(CSc1ccc(S(=O)(=O)N2CCCCC2)cn1)Nc1ccccc1Br	nt	1.2%	1	41*	10	9

New compounds follow.
SMILES,TRPV1 potentiator,Sfp inh,PINK1 modulator,D2 PAM,D2 agonist,CtBP-E1A inh,Six1-Eya2 inh
Cc1ccc(-n2nc3c(=O)n(C(C)C(=O)NCCc4cccs4)nc(C)c3c2C)cc1 (centres undefined),6,2%,3.0%,-1,2.2,nt,1
Cc1nn(C)c(C)c1S(=O)(=O)N(CC(=O)Nc1ccc2c(c1)OCO2)c1ccc(C(C)C)cc1,0,18%,2.3%,-6,-5.2,3,-4
Fc1cccc(Nc2ncnc3[nH]ncc23)c1,-18,11%,0.7%,0,-4.5,-16,-22
O=C(O)c1cccc(S(=O)(=O)N(Cc2ccccc2)c2ccccc2)c1,1,-9%,-1.4%,7,3.3,2,-7
CC(C)(C)NC(=O)CCc1ncc(C(F)(F)F)cc1Cl,-7,14%,0.6%,-3,-4.5,-13,9
O=C(N/N=C/c1ccccn1)c1cc(C2CC2)[nH]n1,9,-44%,1.3%,-2,-0.4,-68*,?
COc1ccc(-c2csc(N3CCC(C(N)=O)(N4CCCCC4)CC3)n2)cc1,1,-3%,nt,0,0.8,8,-21
CCOC(=O)C1CCN(C(=O)COc2ccc(N(C)S(=O)(=O)c3cccs3)cc2)CC1,6,2%,2.6%,18,0.3,3,-1
O=C(CSc1nnc(Nc2ccccc2F)s1)Nc1cccc(S(=O)(=O)N2CCCCC2)c1,5,9%,0.2%,1,-3.1,-9,-22
CCCCOc1nc2ccccc2nc1NS(=O)(=O)c1ccc(F)cc1,23,26%,-0.2%,-2,0.9,-2,-1
CCCCC(CC)C(=O)Nc1ccc(C)c(O)c1 (centres undefined),-5,16%,2.0%,-7,-2.7,-25,1
COc1ccc(N2C3=C(C(=O)CC(C)(C)C3)C(c3cnn(C)c3)C3=C2CC(C)(C)CC3=O)cc1,0,10%,-0.5%,-3,1.4,5,0
COc1ccc(OC)c(CCNC(=O)CCn2ccc3cc(S(=O)(=O)N4CCCC4)ccc32)c1,5,5%,0.8%,-8,-0.4,-6,-8
Cc1csc(SCC(=O)Nc2ccc3[nH]c(=O)[nH]c3c2)n1,nt,nt,2.0%,-12,-3.4,-3,-15
CCC(C#CCN1CCOCC1)(CC)OCCC#N,-13,2%,-2.1%,0,-0.7,-7,-16
CCCCN(C)C(=O)c1cc2cc3cc(OC)ccc3nc2o1,0,13%,0.8%,-4,-2.8,-28,-13
COc1ccc(S(=O)(=O)N2CCc3ccccc32)cc1NC(C)=O,-8,20%,5.7%,-5,3.1,nt,10
CCOc1ccccc1NC(=O)COC(=O)c1ccc2ccccc2n1,21,nt,6.3%,-2,-0.6,-12,4
Cc1ccc(Cl)cc1-c1cc(C(=O)NCC2CCCCC2)[nH]n1,nt,nt,4.4%,-15,2.9,6,15
CC(C)(C)OC(=O)NCCCCCNC(=O)c1nc[nH]c1C(=O)NCC(=O)OCc1ccccc1,nt,nt,-1.1%,52*,?,-20,-1
O=C(c1ccccc1Br)N1CCc2c([nH]c3ccccc23)C1,0,6%,4.3%,-8,-4.4,2,-2
Cc1cccc(-c2nc(=S)c3c(n2Cc2ccco2)CCCC3)c1,0,20µM*,-5.0%[38.3 µM],-3,2.3,2,-6
Cc1sc2nc(C(C)C)oc(=O)c2c1C,2,14%,4.7%,-4,0.0,6,5
O=C(CSc1nc2c(c(C(F)(F)F)n1)CCc1ccccc1-2)NCc1ccccc1,-23,2%,12%,19,-3.3,11,0
O=C(NCCN1C(=O)S/C(=C\c2ccc(Cl)c(Cl)c2)C1=O)c1ccc2c(c1)C(=O)N(Cc1ccncc1)C2=O,4,?,12%,2,9.3,9,0
O=C(CSCc1cccc(Br)c1)NC1CC1,-27,0%,1.1%,-8,-2.2,1,0
CCOC(=O)C1CCN(C/C=C/c2ccccc2OC)CC1,-3,-20%,5.0%[38.3 µM],-10,-4.3,0,-4
FC(F)(F)c1ccccc1Cc1c(-c2cccc(Cl)c2)nc2ccc(Br)cn12,nt,nt,8.7%,-1,-4.0,3,7
CCc1nc(SCC(=O)Nc2ccc(F)cc2F)c2c(=O)n(C)c(=O)n(C)c2n1,-1,-11%,0.7%,-8,-0.2,5,1
CCN(CC)C(=O)c1cccc(-c2csc(C(C)(NC(C)=O)c3ccccc3)n2)c1 (centres undefined),nt,nt,1.7%,11,-2.2,2,4
CC(C)c1ccc(CC(=O)N2CCC2(C)C(=O)NS(=O)(=O)c2ccc(Cl)s2)cc1 (centres undefined),nt,nt,1.3%,2,4.0,6,8
c1ccc(SCCc2ccncc2)cc1,-9,2%,-0.7%,-8,4.2,-4,6
O=C1CCCN1C(=O)COc1ccccc1[N+](=O)[O-],-17,nt,1.8%,-2,-0.4,-17,8
O=C(CCN1C(=O)C2CC=CCC2C1=O)Nc1nccs1 (centres undefined),6,4%,-0.5%,-5,-1.7,2,13
O=C(Nc1nccs1)c1ccc(N2C(=O)[C@@H]3[C@H](C2=O)[C@H]2C=C[C@@H]3C2)cc1,0,-5%,13%,-8,-3.0,-14,-11
CC(Oc1ccc(Cl)cc1)C(=O)/C=C/N(C)C (centres undefined),-12,10%,-1.0%,-1,-0.9,-2,-2
COC(=O)c1sccc1NC(=O)c1ccco1,-2,7%,-3.4%,-8,-1.1,-3,-3
Cc1cnc(NC(=O)c2c(-c3ccccc3)noc2C)s1,-1,8%,-1.1%,-10,-3.8,-5,-4
COC(=O)c1c(N)sc2c1CCN(c1ncc(C(F)(F)F)cc1Cl)C2,1,15%,-0.1%,1,-0.9,0,-5
Cn1c(=O)c(=O)n(C)c2cc(S(=O)(=O)Nc3ccc4c(c3)OCCO4)ccc21,-4,1%,-0.1%,8,1.3,3,-3
O=C(Nc1cc(Cl)ccc1-n1cncn1)c1cncc(Br)c1,-3,nt,0.0%,-5,-3.6,19,7
COC(=O)c1ccc(COc2ccccc2/C=N/NS(=O)(=O)c2ccc(C)cc2)cc1,26,19%,?,-6,-2.4,6,-9
COc1ccc(C(C)(O)c2nc(/C=C/c3ccccc3)cs2)cc1 (centres undefined),nt,nt,11%,-12,-7.5,5,1
CC(=O)Nc1cc(-c2nn(C)c(=O)c3ccccc23)ccc1N1CCOCC1,9,11%,0.2%,13,-3.7,2,5

Screening results: PubChem, National Center for Advancing Translational Sciences (NCATS)

An unsorted share of the library; 3.7% or so of the library scored in one or more.
